Sa ugtP lethal = kills S. aureus RN4220 lacking UgtP; S. aureus RN4220 ugtP deletion, OD600 growth, 16 h; some inactives read as strong as hits; growth inhibition, % (no concentration beside the values); 330,000 compounds, 0.54% hits; AID 1259309;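 active means z-score under -3 and OD600 up to 0.15 on both plates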;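 further: plate controls were untreated wells for no effect and antibiotic for full effect; wells of about 80 µL received 100 nL stock; the first replicate is given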
Mtb hypoxia inh = inhibitors of hypoxia-regulated fluorescent reporter in Mycobacterium tuberculosis; M. tuberculosis hypoxia-regulated fluorescent reporter, fluorescence; fluorescence inhibition, % (concentration not given with the values); 300,000 compounds, 0.1% hits; AID 1159583;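 active means 35 to 45% if threefold the growth effect, above 45% if 1.5-fold the growth effect; inactive means the rest, general growth blockers included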;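 further: wells of about 50 µL received 100 nL stock; 0% = vehicle wells and 100% = reference inhibitor wells; whole bacteria with a GFP reporter of the hypoxia response; strong numbers were not always called active; many hits fall short of the cut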
Autofluor counter = flagged as autofluorescent in microsphere protease counterscreen | 360,000 compounds, 3.1% hits | AID 624483 | compound autofluorescence counterscreen, microsphere flow cytometry; active compounds read high | fluorescence intensity (no concentration beside the values);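 active means at least 3 SD above the mean of all compounds, about 16000 in these data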;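 further: 100 nL of 1 mM stock went into each well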
PrP UTR inh = suppresses PrP 5' UTR mRNA reporter expression. AID 488862. cell-based PrP 5' UTR mRNA reporter, plate reader. 340,000 compounds, 0.35% hits. inhibition, % (no concentration beside the values);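 active means every replicate at 50% or more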;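 further: 0 = median of the neutral control wells; tested in H4 reporter cells; numbers are from one replicate; inactives centre near -14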
BJeLR lethal = BJeLR cell viability loss. BJeLR (HRASV12) viability, CellTiter-Glo ATP luminescence, 48 h; reference of the scale not given here. inhibition, % (test concentration not listed). 300,000 compounds, 0.17% hits. AID 1554;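 active means replicate mean above 50%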;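 further: 50 nL library stock added to about 25 µL; numbers are from one replicate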
RN4220 kill = kills Staphylococcus aureus RN4220. S. aureus RN4220 growth, OD600, 16 h. inhibition, % (no concentration beside the values). 330,000 compounds, 0.33% hits;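 active means z-score of -3 or lower and OD600 up to 0.18 on both plates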;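 further: plate controls were untreated cells for no effect and reference antibiotic for full effect; stock transfer was 100 nL into about 80 µL; one replicate is shown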
Mtb hypoxia inh growth = also measured in Mtb hypoxia inh; calls as there; growth inhibition, %; measured here: M. tuberculosis growth (absorbance);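 0% = vehicle and 100% = reference antibiotic; read after six days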
* = called active by the depositor.

COCCn1c(SCC(=O)Nc2cc(Cl)ccc2OC)nc2c(c1=O)SC(C)C2 (centres undefined) was read as Sa ugtP lethal -7, Mtb hypoxia inh -1, Autofluor counter 4113, PrP UTR inh -5, BJeLR lethal 7, RN4220 kill -6.5 and Mtb hypoxia inh growth -1.
Screening COc1cc(Br)c(C2C(C#N)=C(N)Oc3n[nH]c(-c4cccnc4)c32)cc1OC (centres undefined) returned Sa ugtP lethal 1, Mtb hypoxia inh 2, Autofluor counter 4607, PrP UTR inh -28, BJeLR lethal 1, RN4220 kill 9.7 and Mtb hypoxia inh growth 7.
O=c1[nH]c(C2CCN(S(=O)(=O)c3ccc4c(c3)OCCO4)CC2)nc2c1nnn2Cc1ccc(F)cc1 was read as Sa ugtP lethal 5, Mtb hypoxia inh -7, Autofluor counter 3524, PrP UTR inh -14, BJeLR lethal -11, RN4220 kill 2.7 and Mtb hypoxia inh growth 10.
For NC1=NCC(c2ccccc2)N1CCc1cccc(F)c1 (centres undefined) the results were Sa ugtP lethal 0, Mtb hypoxia inh -11, RN4220 kill -0.2 and Mtb hypoxia inh growth 1.
`CCOC(=O)C1=C(C)Nc2ccccc2N=C1NC(=O)Cc1ccc(Br)cc1` gave Sa ugtP lethal -2, Mtb hypoxia inh 5, Autofluor counter 1983, PrP UTR inh -13, BJeLR lethal -11, RN4220 kill 6.5 and Mtb hypoxia inh growth 11.
CC1=NN(c2ccc(N)cc2)C(=O)C1 was read as Sa ugtP lethal 5, Mtb hypoxia inh -1, Autofluor counter 3492, PrP UTR inh -18, BJeLR lethal 1, RN4220 kill -1.2 and Mtb hypoxia inh growth 5.
For Cc1cccc[n+]1CC(=O)/C=C1\N(C)c2ccccc2C1(C)C the results were Sa ugtP lethal -1, Mtb hypoxia inh 16, Autofluor counter 2531, PrP UTR inh -2, BJeLR lethal 6, RN4220 kill 0.5 and Mtb hypoxia inh growth 8.
For Cc1nnc(NC(=O)CSc2nnc(Cc3ccccc3)n2-c2ccccc2)s1 the results were Sa ugtP lethal 0, Autofluor counter 3078, PrP UTR inh -20, BJeLR lethal -4 and RN4220 kill 7.3.
`O=C(CCCNC(=O)c1ccc(Cl)cc1)NCc1ccccc1F` gave Sa ugtP lethal 4, Mtb hypoxia inh 1, Autofluor counter 3841, PrP UTR inh -29, BJeLR lethal 2, RN4220 kill 1.4 and Mtb hypoxia inh growth 3.
Cc1ccc(S(=O)(=O)Nc2cccnc2Oc2ccc(Cl)cc2)cc1 was read as Sa ugtP lethal -3, Mtb hypoxia inh 4, Autofluor counter 4088, PrP UTR inh -7, BJeLR lethal 0, RN4220 kill 4.1 and Mtb hypoxia inh growth -1.
Cc1cccc(NC(=O)c2cc(NC(=O)c3ccco3)ccc2Cl)n1 was read as Sa ugtP lethal -2, Autofluor counter 4696, PrP UTR inh -1 and RN4220 kill 4.0.
For CC12CN3CCN(CC(C3)C1(O)CN1CCOCC1)C2 (centres undefined) the results were Sa ugtP lethal 0, Autofluor counter 2135, PrP UTR inh 26, BJeLR lethal 0 and RN4220 kill 0.5.
S=c1[nH]nc(C2CC2)n1Cc1ccccc1 was read as Sa ugtP lethal -8, Mtb hypoxia inh -1, Autofluor counter 3268, PrP UTR inh -17, BJeLR lethal 1, RN4220 kill 4.9 and Mtb hypoxia inh growth 6.
Screening COC(=O)Nc1ccc2c(c1)N(C(=O)CCCl)c1ccccc1S2 returned Sa ugtP lethal 0, Mtb hypoxia inh 12, Autofluor counter 3683, PrP UTR inh -12, BJeLR lethal 1, RN4220 kill 1.8 and Mtb hypoxia inh growth 7.
`CCSc1nnc(NC(=O)CN2C(=O)C3CC=CCC3C2=O)s1` (centres undefined) gave Sa ugtP lethal 3, Mtb hypoxia inh -5, Autofluor counter 2019, PrP UTR inh -5, BJeLR lethal -4, RN4220 kill 1.2 and Mtb hypoxia inh growth 8.
`COc1ccc(C(=O)Nc2cc3c(cc2N2CCCCC2)n(C)c(=O)n3C)cc1OC` gave Sa ugtP lethal -7, Mtb hypoxia inh -5, PrP UTR inh -8, BJeLR lethal -3, RN4220 kill 4.7 and Mtb hypoxia inh growth -3.
`Cc1ccc2oc(=O)c3cc(C(=O)NCCN4CCN(C)CC4)sc3c2c1` gave Sa ugtP lethal 5, Autofluor counter 5423, PrP UTR inh -29, BJeLR lethal -2 and RN4220 kill 4.2.
COc1ccc(NC(=O)CSc2nc(C)cs2)c([N+](=O)[O-])c1 was read as Sa ugtP lethal 7, Mtb hypoxia inh 0, Autofluor counter 5213, PrP UTR inh -20, RN4220 kill 9.8 and Mtb hypoxia inh growth 5.
CC(C)[C@H](NC(=O)c1cc2cc(Cl)ccc2n1C)C(=O)N1CCC(C(=O)O)CC1 was read as Sa ugtP lethal 15, Mtb hypoxia inh 11, Autofluor counter 3503, PrP UTR inh -24, BJeLR lethal -1, RN4220 kill 1.8 and Mtb hypoxia inh growth 9.
Screening Cc1ccc(S(=O)(=O)N2CCOCC2)cc1NC(=O)CSc1nnc(NC2CC2)s1 returned Sa ugtP lethal 2, Mtb hypoxia inh 13, Autofluor counter 4101, PrP UTR inh -30, RN4220 kill 4.5 and Mtb hypoxia inh growth 3.
Screening CCCCN(CC)CCCNC(=S)Nc1ccc2nc3n(c(=O)c2c1)CCCCC3 returned Sa ugtP lethal 0, Mtb hypoxia inh 6, Autofluor counter 10167, PrP UTR inh -7, BJeLR lethal -1, RN4220 kill 3.3 and Mtb hypoxia inh growth 6.
For CC[C@]12c3[nH]c4ccc(Cl)cc4c3CCN1C(=O)[C@@H](CC(=O)NCCN1CCOCC1)C[C@@H]2C(=O)N1CCN(C(=O)C2CC2)CC1 the results were Sa ugtP lethal 1, Mtb hypoxia inh 1, Autofluor counter 3971, PrP UTR inh -10, RN4220 kill 0.3 and Mtb hypoxia inh growth -10.
Screening O=C(NN=Cc1ccccc1)C(O)c1ccccc1 (centres undefined) returned Sa ugtP lethal 4, Mtb hypoxia inh -3, RN4220 kill 3.1 and Mtb hypoxia inh growth -7.
CC1(C)CC[C@]2(C(=O)O[C@@H]3OC(CO)[C@@H](O)[C@H](O)[C@H]3O)CC[C@]3(C)C(=CCC4[C@@]5(C)CC[C@H](O[C@@H]6OC(C(=O)O)[C@@H](O)[C@H](O)[C@H]6O)C(C)(C)C5CC[C@]43C)[C@@H]2C1 (some centres undefined) was read as Sa ugtP lethal 1, Mtb hypoxia inh -5, Autofluor counter 3578, PrP UTR inh -15, RN4220 kill 16 and Mtb hypoxia inh growth 6.
`CCCCOc1ccc(C(=O)NCC(=O)NC2CCN(Cc3ccccc3)CC2)cc1` gave Sa ugtP lethal 10, Mtb hypoxia inh 8, Autofluor counter 7322, PrP UTR inh -15, BJeLR lethal 9, RN4220 kill 1.1 and Mtb hypoxia inh growth 2.
Cc1nc(COC(=O)c2c(C)nn(-c3ccccc3)c2C)cs1 was read as Sa ugtP lethal 1, Autofluor counter 4522, PrP UTR inh -28, BJeLR lethal -6 and RN4220 kill 5.3.
For COC(=O)c1cccc(-c2ccc(C=NN3C(=O)C4C5C=CC(C6CC56)C4C3=O)o2)c1 (centres undefined) the results were Sa ugtP lethal -5, Mtb hypoxia inh 11, RN4220 kill 7.8 and Mtb hypoxia inh growth 6.
Screening CCCCSc1nc(C(=O)O)cc(=O)[nH]1 returned Sa ugtP lethal 6, Mtb hypoxia inh -4, Autofluor counter 4445, PrP UTR inh 8, BJeLR lethal -12, RN4220 kill 1.4 and Mtb hypoxia inh growth 2.
Screening CCN(CC)CCCN1C=C2C(=O)C(C)(OC(=O)CCc3ccccc3)C(=O)C=C2C=C1c1ccc(C#N)cc1 (centres undefined) returned Sa ugtP lethal 2, Mtb hypoxia inh 10, Autofluor counter 3259, PrP UTR inh -18, BJeLR lethal -6, RN4220 kill 5.8 and Mtb hypoxia inh growth 1.
`CCOC(=O)N1CCN(CC(O)COc2cc(C)cc(C)c2)CC1` (centres undefined) gave Sa ugtP lethal -1, Mtb hypoxia inh -5, Autofluor counter 3204, PrP UTR inh -6, BJeLR lethal 5, RN4220 kill -0.7 and Mtb hypoxia inh growth -3.
COCc1c(C(=O)OC/C(O)=C(\C#N)c2nc3ccccc3[nH]2)oc2ccccc12 was read as Autofluor counter 4932, PrP UTR inh -30 and BJeLR lethal 11.
`CC(C)c1nnc(NC(=O)CCCC(=O)O)s1` gave Sa ugtP lethal -2, Mtb hypoxia inh 5, Autofluor counter 2840, PrP UTR inh -15, BJeLR lethal 7, RN4220 kill 3.3 and Mtb hypoxia inh growth 8.
`O=C(COC(=O)c1ccccc1SCC(=O)N1CCCC1)NC1CCS(=O)(=O)C1` (centres undefined) gave Sa ugtP lethal 13, Mtb hypoxia inh 7, PrP UTR inh 4, BJeLR lethal -1, RN4220 kill 1.8 and Mtb hypoxia inh growth -8.
CCN(CC)S(=O)(=O)c1cc(C(=O)Nc2cccnc2Cl)ccc1Cl was read as Sa ugtP lethal 4, Mtb hypoxia inh 7, Autofluor counter 3926, PrP UTR inh -9, BJeLR lethal 6, RN4220 kill -0.3 and Mtb hypoxia inh growth 3.
Screening Cc1cc(C)cc(NC(=O)Cn2nnc3ccccc3c2=O)c1 returned Sa ugtP lethal 4, Mtb hypoxia inh -10, Autofluor counter 3269, PrP UTR inh -14, BJeLR lethal 2, RN4220 kill 3.8 and Mtb hypoxia inh growth -7.
For CCn1ncc(Br)c1C(=O)Nc1ccc(Cl)cn1 the results were Sa ugtP lethal 3, Mtb hypoxia inh 11, Autofluor counter 6658, PrP UTR inh -10, BJeLR lethal 4, RN4220 kill 0.5 and Mtb hypoxia inh growth 12.
For O=C(O)C1=NN(c2ccccc2)C(=O)C1 the results were Sa ugtP lethal -4, Mtb hypoxia inh -11, Autofluor counter 3909, PrP UTR inh -31, BJeLR lethal 9, RN4220 kill -4.6 and Mtb hypoxia inh growth -15.
CC1(C)Cc2c(sc3nc(C4CC4)n(N)c(=O)c23)CO1 was read as Sa ugtP lethal 1, Mtb hypoxia inh 2, Autofluor counter 5062, PrP UTR inh -12, BJeLR lethal -3, RN4220 kill 3.4 and Mtb hypoxia inh growth 2.
`COC(=O)c1ccccc1-c1ccc(/C=N/NC(=O)c2cc3ccccc3o2)o1` gave Autofluor counter 9161, PrP UTR inh -17 and BJeLR lethal -3.
`Cc1ccc(-n2c(C)cc(/C=C3/SC(=O)N(CC(=O)N4CCOCC4)C3=O)c2C)nc1` gave Sa ugtP lethal -1, Mtb hypoxia inh -12, BJeLR lethal 0, RN4220 kill -3.6 and Mtb hypoxia inh growth -2.
`CNC(=O)c1cc(C(=O)c2ccc(C(F)(F)F)cc2)c[nH]1` gave Sa ugtP lethal 8, Mtb hypoxia inh -3, Autofluor counter 3760, PrP UTR inh -18, BJeLR lethal 2, RN4220 kill 0.0 and Mtb hypoxia inh growth 8.
For N=c1c(S(=O)(=O)c2ccc(Cl)cc2)cc2c(=O)n3ccccc3nc2n1Cc1cccnc1 the results were Sa ugtP lethal 5, Mtb hypoxia inh 8, Autofluor counter 4951, PrP UTR inh -16, BJeLR lethal -9, RN4220 kill 1.8 and Mtb hypoxia inh growth 8.
`CC(C)NC(=O)c1ccc(COc2cc(Cl)ccc2Cl)o1` gave Sa ugtP lethal 4, Mtb hypoxia inh -1, Autofluor counter 3636, PrP UTR inh -12, BJeLR lethal -2, RN4220 kill 11 and Mtb hypoxia inh growth 1.
For CCN1CCN(S(=O)(=O)c2ccc(S(=O)(=O)N(CC)Cc3ccccc3)cc2)CC1 the results were Sa ugtP lethal 12, Mtb hypoxia inh 10, Autofluor counter 5911, PrP UTR inh -17, BJeLR lethal 6, RN4220 kill 4.1 and Mtb hypoxia inh growth 15.

Three neighbouring compounds out of the list so far, quoted:
For N=c1c(S(=O)(=O)c2ccc(Cl)cc2)cc2c(=O)n3ccccc3nc2n1Cc1cccnc1 the results were Sa ugtP lethal 5, Mtb hypoxia inh 8, Autofluor counter 4951, PrP UTR inh -16, BJeLR lethal -9, RN4220 kill 1.8 and Mtb hypoxia inh growth 8.
`CC(C)NC(=O)c1ccc(COc2cc(Cl)ccc2Cl)o1` gave Sa ugtP lethal 4, Mtb hypoxia inh -1, Autofluor counter 3636, PrP UTR inh -12, BJeLR lethal -2, RN4220 kill 11 and Mtb hypoxia inh growth 1.
For CCN1CCN(S(=O)(=O)c2ccc(S(=O)(=O)N(CC)Cc3ccccc3)cc2)CC1 the results were Sa ugtP lethal 12, Mtb hypoxia inh 10, Autofluor counter 5911, PrP UTR inh -17, BJeLR lethal 6, RN4220 kill 4.1 and Mtb hypoxia inh growth 15.

High-throughput results (PubChem)
